Bead autofluor: compound fluorescence in toxin protease inhibitor counterscreen | compound autofluorescence counterscreen, microsphere flow cytometry; active compounds read high | fluorescence intensity (test concentration not listed) | 360,000 compounds, 3.1% hits | AID 624483;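 active = at least 3 SD above the mean of all compounds, about 16000 in these data; inconclusive = too few beads counted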;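 also: 100 nL of 1 mM stock went into each well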
ugtP null kill: growth inhibition of ugtP-null S. aureus, primary screen, RN4220 ugtP deletion, OD600 | 16 h; some inactives read as strong as hits | growth inhibition, % (concentration not given with the values) | 330,000 compounds, 0.54% hits;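 active = z-score under -3 and OD600 up to 0.15 on both plates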;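 also: plate controls were untreated wells for no effect and antibiotic for full effect; wells of about 80 µL received 100 nL stock; the first replicate is given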
PrP 5UTR inh: inhibition of PrP 5' UTR reporter expression; cell-based PrP 5' UTR mRNA reporter, plate reader; inhibition, % (no concentration beside the values); 340,000 compounds, 0.35% hits;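 active = every replicate at 50% or more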;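 also: 0 = median of the neutral control wells; tested in H4 reporter cells; numbers are from one replicate; inactives centre near -14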
Mtb hypoxia inh: PubChem AID 1159583. fluorescence inhibition, % (concentration not given with the values). 300,000 compounds, 0.1% hits. M. tuberculosis hypoxia-regulated fluorescent reporter, fluorescence;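 active = 35 to 45% if threefold the growth effect, above 45% if 1.5-fold the growth effect; inactive = the rest, general growth blockers included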;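 also: wells of about 50 µL received 100 nL stock; 0% = vehicle wells and 100% = reference inhibitor wells; whole bacteria with a GFP reporter of the hypoxia response; strong numbers were not always called active; many hits fall short of the cut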
RN4220 kill: growth inhibition of S. aureus RN4220, primary screen, OD600; 16 h; inhibition, % (test concentration not listed); 330,000 compounds, 0.33% hits;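 active = z-score of -3 or lower and OD600 up to 0.18 on both plates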;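 also: plate controls were untreated cells for no effect and reference antibiotic for full effect; stock transfer was 100 nL into about 80 µL; one replicate is shown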
BJeLR lethal: MLPCN primary cell-based screen for lethality selective to Ras in HRASV12 cells | BJeLR (HRASV12) viability, CellTiter-Glo ATP luminescence, 48 h; reference of the scale not given here | inhibition, % (test concentration not listed) | 300,000 compounds, 0.17% hits | AID 1554, 2009;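 active = replicate mean above 50%; inconclusive = above 50% but judged a plate artefact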;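 also: 50 nL library stock added to about 25 µL; numbers are from one replicate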
Mtb hypoxia inh growth: recorded beside Mtb hypoxia inh, whose call it bears; growth inhibition, %; measured here: M. tuberculosis growth (absorbance);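 0% = vehicle and 100% = reference antibiotic; read after six days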
* hit, by the source's call; ? = inconclusive; . = not tested or not shown. An unsorted share of the library; 4.1% or so of the library scored in one or more.

SMILES | Bead autofluor | ugtP null kill | PrP 5UTR inh | Mtb hypoxia inh | Mtb hypoxia inh growth | RN4220 kill | BJeLR lethal
O=C(Nn1c(O)c(C=C2N=c3ccccc3=N2)sc1=S)c1ccccc1 | 7668 | -4 | -16 | 8 | 5 | 7.3 | 3
O=C1NC2(CCCCC2)OC12CCCCC2 | 3481 | 6 | -9 | 20 | 8 | 2.8 | .
CC(C)C(=O)Nc1c(-c2ccccc2F)c(=O)c2ccccc2n1C | 3293 | 13 | -8 | -1 | 10 | 4.9 | 4
NC(=O)CC(NC(=O)Cc1cccc2ccccc12)c1ccc(N2CCN(c3ccccn3)CC2)c([N+](=O)[O-])c1 (stereo unspecified) | 3591 | -2 | -17 | 8 | 0 | -6.4 | -12
Cc1cccc(N2CCN(C(=O)c3cccc(N4C(=O)C5CC=CC(C)C5C4=O)c3)CC2)c1C (stereo unspecified) | 10576 | -28 | -23 | 3 | 5 | -2.5 | -4
COc1ccc(-c2c(C)cc3oc(=O)cc(-c4ccccc4)c3c2C)cc1C=O | 2905 | 43 | -18 | -1 | -3 | -2.1 | .
COC(=O)COc1cccc(NC(=O)COc2ccccc2)c1 | 3634 | -3 | -22 | 17 | 10 | -13 | 12
COc1ccccc1C(=O)OCCc1ccccc1 | 3101 | 16 | -102 | 1 | 4 | 9.1 | .
Cc1sc(NN=Cc2cccnc2)nc1-c1ccccc1 | . | 1 | . | 8 | 3 | 0.3 | .
Cc1nn(C)cc1/C=C/C(=O)c1ccccc1 | 16636* | -1 | -96 | -6 | 0 | 1.4 | -5
Cc1nc2c([nH]c3ccc(Br)cc32)s1 | 20775* | -1 | -33 | 5 | 5 | 2.8 | -6
COc1ccc(C(C)=NNS(=O)(=O)c2ccccc2)c(OC)c1 | . | -1 | . | 4 | 8 | 1.8 | .
C/C(=N\S(=O)(=O)c1ccc(C)cc1)N1CCCCC1 | 4937 | . | -19 | . | . | . | 5
O=C(COC(=O)c1ccc([N+](=O)[O-])o1)Nc1ccc2c(c1)OCO2 | 2918 | 5 | -25 | 10 | 9 | 6.1 | .
CC(=O)NC(C)Cc1cn(Cc2ccccc2)c2ccccc12 (stereo unspecified) | 3199 | -1 | 6 | 13 | 1 | 1.6 | -2
CCOC(=O)Nc1nc(-c2ccccc2)c(C(=O)c2ccccc2)s1 | 3000 | -14 | 32 | 1 | 8 | 18 | 41
O=C1c2ccccc2C(=O)N1/N=C/c1ccc(O)c(O)c1O | 3262 | . | -18 | . | . | . | 7
O=C(CSc1nc2ccccc2o1)N1c2ccccc2Sc2ccc(Cl)cc21 | 22316* | 8 | -9 | 5 | 1 | -1.0 | 11
C=CCn1c(Oc2ccc(C=O)cc2OCC)nc2c1c(=O)n(C)c(=O)n2C | 3704 | -2 | -10 | -3 | 3 | 4.0 | 3
Cc1cccc(C)c1OCC(=O)Nc1ccncc1 | 3923 | 8 | -9 | 3 | 16 | 0.9 | 9
Cc1cc(C(=O)N/N=C\c2cc(C(C)(C)C)c(O)c(C(C)(C)C)c2)n[nH]1 | 4024 | . | -26 | . | . | . | -8
CN(C(=O)N1CCN(S(=O)(=O)c2ccccc2)CC1)c1ccccc1 | 3207 | 10 | -53 | 20 | 3 | 11 | 6
CN(C(=O)c1cccc(NC(=O)Cc2cccc(NC(=O)C3CCN(C(=O)c4ccccc4)CC3)c2)c1)C1CCCC1 | 2972 | 5 | -17 | -3 | 5 | 4.6 | .
Cc1nc2[nH]c(=S)[nH]c2cc1Br | 5204 | -7 | -7 | . | . | -0.8 | -16
Oc1c(Cl)cc(Cl)cc1CNc1nc2ccccc2[nH]1 | 3221 | -9 | -17 | 9 | 4 | -11 | 7
O=C(O)C1C2C=CC(C2)C1C(=O)N1CCN(CCO)CC1 (stereo unspecified) | 3547 | 2 | -12 | -1 | 8 | -0.7 | 12
Cc1ccc2c(c1)NC(=O)C(CC(=O)NCCCN1CCCCC1)O2 (stereo unspecified) | 5860 | -1 | -17 | . | . | -0.5 | 4
COc1ccc(CN2C(=O)CN(C3CCCCCC3)C(=O)C2c2ccc(OC)c(OC)c2)cc1 (stereo unspecified) | 10137 | 6 | -34 | 4 | 6 | 0.3 | 2
CC1OC(OC2C(=O)c3c(O)cc(O)cc3OC2c2ccc(O)c(O)c2)C(O)C(O)C1O (stereo unspecified) | . | 1 | . | 7 | 7 | 2.4 | .
Cc1ccccc1-n1nc(C)c2cc(C(=O)NC3CC3)sc21 | ? | -4 | -14 | -4 | 3 | 4.6 | -5
Cc1ccc(OCC(O)CN2CCN(CC(O)COc3ccc(C)cc3Cl)CC2)c(Cl)c1 (stereo unspecified) | 6115 | -1 | -12 | 6 | 8 | -0.1 | -7
Cc1nn(-c2ccccc2)c(N2CCCC2)c1/C=N/NC(=O)c1cc(-c2ccccn2)nc2ccccc12 | 1983 | . | -15 | . | . | . | -10
CCOC(=O)Nc1ccc2nc3n(c(=O)c2c1)CCCCC3 | 4418 | 3 | -35 | 11 | 19 | 14 | .
C=CCN1C(=O)CS/C1=N\N=C\c1cccc([N+](=O)[O-])c1 | 2439 | . | -13 | . | . | . | -3
COc1ccc(NC(=O)CCCN2C(=O)C(c3ccccc3)Oc3cccnc32)c(OC)c1 (stereo unspecified) | 4163 | 4 | -7 | 1 | -2 | 1.2 | 11
Nc1nonc1C(=O)N1CCCC1 | 2482 | -1 | -7 | 7 | 9 | -0.1 | 6

A different layout for part of the listing above:
O=C1NC2(CCCCC2)OC12CCCCC2
  Bead autofluor: 3481; ugtP null kill: 6; PrP 5UTR inh: -9; Mtb hypoxia inh: 20; Mtb hypoxia inh growth: 8; RN4220 kill: 2.8; BJeLR lethal: .

CC(C)C(=O)Nc1c(-c2ccccc2F)c(=O)c2ccccc2n1C
  Bead autofluor: 3293; ugtP null kill: 13; PrP 5UTR inh: -8; Mtb hypoxia inh: -1; Mtb hypoxia inh growth: 10; RN4220 kill: 4.9; BJeLR lethal: 4

NC(=O)CC(NC(=O)Cc1cccc2ccccc12)c1ccc(N2CCN(c3ccccn3)CC2)c([N+](=O)[O-])c1 (stereo unspecified)
  Bead autofluor: 3591; ugtP null kill: -2; PrP 5UTR inh: -17; Mtb hypoxia inh: 8; Mtb hypoxia inh growth: 0; RN4220 kill: -6.4; BJeLR lethal: -12

(cont.)
SMILES | Bead autofluor | ugtP null kill | PrP 5UTR inh | Mtb hypoxia inh | Mtb hypoxia inh growth | RN4220 kill | BJeLR lethal
COc1cc(C=NNS(=O)(=O)c2ccccc2)c(OC)c(OC)c1 | . | -5 | . | -6 | 0 | -1.8 | .
COc1ccccc1CCNC(=O)NC1CCCCC1 | 2152 | 12 | -19 | -14 | -7 | 1.6 | -2
COC(=O)c1c(C)[nH]c(C(=O)CSc2ccc(Cl)cc2)c1C | 2136 | 5 | -13 | . | . | -3.6 | -3
Cn1nnnc1Sc1ncnc2scc(-c3ccccc3Br)c12 | 4086 | 1 | -18 | 1 | -2 | 9.1 | .
Cc1ccccc1N=Nc1ccc(O)c2ncccc12 | 1589 | 24 | 20 | 4 | 1 | 41 | 66*
Cc1csc(NC(=O)CSc2nnc(-c3cccs3)n2C)n1 | 7933 | 2 | -9 | 15 | 5 | 8.0 | 0
CN(C(=O)COC(=O)c1ccc(NS(=O)(=O)c2cccs2)cc1)C1CCCCC1 | 2721 | -2 | 0 | 2 | 2 | 4.3 | -4
O=C(CCCN1C(=O)c2ccccc2C1=O)NCc1ccco1 | 4591 | 4 | -1 | . | . | 0.9 | -3
C/C(=N\NC(=O)c1ccc(O)cc1)c1ccc2c(c1)Nc1ccccc1S2 | 1990 | . | -6 | . | . | . | 4
COc1ccc(N2CCc3c(C)nc4c(OC)cc(OC)cc4c32)c(OC)c1 | 5618 | -8 | -15 | 5 | 15 | 2.3 | -1
CCOC(=O)C1CCCCN1Cc1cccc(C(F)(F)F)c1 (stereo unspecified) | 10435 | -2 | -25 | 0 | 10 | 9.5 | -8
Cc1ccccc1-n1nc2c(c1NC(=O)c1cc3ccccc3oc1=O)CS(=O)C2 (stereo unspecified) | 3734 | -3 | -17 | . | . | 6.9 | 7

Next section (three carried over from the part before).
SMILES | Bead autofluor | ugtP null kill | PrP 5UTR inh | Mtb hypoxia inh | Mtb hypoxia inh growth | RN4220 kill | BJeLR lethal
COc1ccc(N2CCc3c(C)nc4c(OC)cc(OC)cc4c32)c(OC)c1 | 5618 | -8 | -15 | 5 | 15 | 2.3 | -1
CCOC(=O)C1CCCCN1Cc1cccc(C(F)(F)F)c1 (stereo unspecified) | 10435 | -2 | -25 | 0 | 10 | 9.5 | -8
Cc1ccccc1-n1nc2c(c1NC(=O)c1cc3ccccc3oc1=O)CS(=O)C2 (stereo unspecified) | 3734 | -3 | -17 | . | . | 6.9 | 7
O=C(/C=C/c1cccs1)c1cc(F)ccc1OC(=O)N1CCOCC1 | 4458 | -7 | 1 | -3 | 4 | 6.7 | 0
CCOc1ccc(-c2noc(CCCC(=O)NC3CCCC3)n2)cc1OC | 5851 | 8 | -2 | 2 | -6 | 1.4 | 1
O=C(CN1C(=O)NC2(CCCC2)C1=O)Nc1ccc(Cl)cc1F | 3035 | 12 | -16 | 8 | 7 | 4.3 | -9
COc1cc2c(cc1NC(=O)COCC(=O)O)oc1ccccc12 | 2896 | 16 | -19 | -2 | -5 | 0.0 | 15
CC(=O)NC(C)C(=O)OCC(=O)c1ccc(-c2ccccc2)cc1 (stereo unspecified) | 3999 | -7 | -12 | 6 | 11 | 5.4 | -21
COCCNC(=O)c1cccc(OC2CCN(Cc3ccc(OC(F)F)cc3)CC2)c1 | . | 9 | -14 | 10 | -1 | 1.6 | 1
COc1ccc(CNC(=O)C(OC(=O)c2nsc(Cl)c2Cl)C(C)C)cc1 (stereo unspecified) | 14001 | -4 | -18 | 15 | 8 | 3.3 | 1
C=CCCC(Cc1ccc(F)cc1)C(=O)OCC(NC(=O)C(CC=C)CC(=O)N(CCO)Cc1ccccc1)C(C)(C)C (stereo unspecified) | . | -2 | . | 2 | 7 | -5.5 | .
COCCO[C@H]1CCC2C3CC=C4C[C@@H](O)CC[C@]4(C)C3CC[C@@]21C (stereo partly specified) | 3754 | 17 | -15 | 12 | 10 | -8.9 | .
Cc1cccc(-c2csc(N)c2C(=O)OC(C)C)c1 | 4316 | 2 | -17 | 23 | 12 | 2.3 | 1
Cc1ccc(-c2cc(Cc3ccncc3)c(=O)[nH]n2)cc1 | 5675 | 6 | -16 | 18 | 10 | 5.0 | -7
Cc1csc(NC(=O)c2c(O)c3c(n(CC(C)C)c2=O)CCCC3)n1 | ? | -18 | -7 | 2 | 11 | -5.9 | -1
CN1C(=O)/C(=C\c2ccc(N(C)C)cc2)OC1=S | 7782 | . | -37 | . | . | . | -1
CCO[C@H]1OC(C(=O)N2CCN(C)CC2)=C[C@@H](c2coc3ccccc3c2=O)[C@@H]1CCCO | 3757 | . | -17 | . | . | . | 2
CSCc1ccc(C(=O)NCc2ccc(F)cc2)cc1 | 2095 | 5 | -19 | 0 | 6 | -3.0 | 7
CCOc1ccc(N(CC(=O)Nc2nccs2)S(=O)(=O)c2c(C)[nH]c(=O)[nH]c2=O)cc1 | 4347 | 0 | -24 | 7 | 4 | 5.3 | -1
O=C(Nc1nc2ccccc2s1)C1CCCO1 (stereo unspecified) | ? | -3 | -42 | -4 | 11 | 2.0 | -1
Cc1ccc(S(=O)(=O)Nc2nc3c(s2)C(=O)CC(C)(C)C3)cc1 | 2060 | 0 | -16 | -1 | 15 | 1.9 | .
CC(C)C(NC(=O)c1cccs1)C(=O)NC1=NCCS1 (stereo unspecified) | 21605* | -5 | -13 | 5 | 16 | 11 | 10
Cc1cc(=O)oc2cc(OCC(=O)NC3CCN(Cc4ccccc4)CC3)ccc12 | 4654 | 14 | -13 | 7 | -4 | 0.0 | 9

Screens (PubChem)
